Screens from PubChem BioAssay.
Mtb bLac sens: beta-lactam sensitization of Mtb H37Rv; M. tuberculosis H37Rv growth with meropenem, percent inhibition; hits of this screen are not shown here; inhibition, % at 25 µM; hit rate 0.27% among 330,000; AID 434955;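 active = about 74% or more and at least 40 points above the plate without the antibiotic, then above 30% in a dose series; inconclusive = first-round hits that could not be retested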;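 also: growth measured after seven days incubation then overnight dye step; 0% = bacteria only wells and 100% = bacteria with antibiotic; twin plates without the antibiotic show which effects depend on it; some results filed as inactive read as strong as hits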
Mtb H37Rv: M. tuberculosis H37Rv growth inhibitors, H37Rv strain (AID 1626). inhibition, % at 10 µM, or IC50 in µM where a hit was titrated. M. tuberculosis H37Rv growth inhibition; higher % means a stronger effect. hit rate 0.95% among 220,000;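 active = confirmed in a dose series; inconclusive = inhibition above 80% but not taken into the dose series; inactive = below 80% or under 30% at every dose of the series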;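 also: bacteria incubated seven days before Alamar blue readout; 0% = bacteria only wells and 100% = bacteria with antibiotic wells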
Arbovirus inh: arbovirus infection inhibition; arbovirus infection cell-based antiviral screen; inhibition, % at 10 µM; hit rate 0.37% among 200,000; AID 1251;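 active = inhibition from about 30%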;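 also: bluetongue infection of BSR cells; cell survival read as ATP light after 72 h; 0% = infected wells without compound and 100% = uninfected wells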
RecA intein inh: inhibitors of M. tuberculosis RecA intein splicing. P9WHJ3. cell-free RecA intein splicing, fluorescence. inhibition, %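 (about 9 µM by stock and volumes)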. hit rate 0.75% among 290,000. AID 2221; in the data active = inhibition above about 30%; inconclusive = no clear call, values can overlap the other calls;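 also: 0% = vehicle wells and 100% = reference inhibitor control wells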
Target sequence (P9WHJ3 whole entry, looked up): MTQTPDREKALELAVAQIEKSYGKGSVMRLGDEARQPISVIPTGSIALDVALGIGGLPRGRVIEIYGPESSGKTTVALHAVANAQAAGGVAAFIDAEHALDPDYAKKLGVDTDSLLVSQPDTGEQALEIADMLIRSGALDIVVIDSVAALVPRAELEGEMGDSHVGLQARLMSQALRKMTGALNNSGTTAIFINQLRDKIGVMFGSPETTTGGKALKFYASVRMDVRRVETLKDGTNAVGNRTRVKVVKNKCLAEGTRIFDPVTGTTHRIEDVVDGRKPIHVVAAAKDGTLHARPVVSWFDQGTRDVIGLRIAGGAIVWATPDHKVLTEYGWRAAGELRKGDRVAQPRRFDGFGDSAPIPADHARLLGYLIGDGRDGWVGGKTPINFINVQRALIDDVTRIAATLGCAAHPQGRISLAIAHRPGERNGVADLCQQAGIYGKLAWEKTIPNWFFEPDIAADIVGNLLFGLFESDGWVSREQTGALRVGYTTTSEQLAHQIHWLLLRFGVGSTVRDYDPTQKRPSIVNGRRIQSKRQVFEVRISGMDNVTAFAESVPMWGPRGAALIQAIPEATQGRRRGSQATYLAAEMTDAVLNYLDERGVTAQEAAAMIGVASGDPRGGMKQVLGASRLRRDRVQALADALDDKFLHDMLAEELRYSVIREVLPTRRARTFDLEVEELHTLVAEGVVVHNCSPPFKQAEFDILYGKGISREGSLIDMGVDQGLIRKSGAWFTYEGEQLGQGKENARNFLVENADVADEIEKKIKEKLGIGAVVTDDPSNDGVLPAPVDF
YopH PTP inh: YopH (Yersinia) phosphatase inhibition; inhibition, %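 (about 10 µM by stock and volumes)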; AID 898; hit rate 0.16% among 140,000; fluorescence Ex485/Em525;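 active = inhibition of 50% or more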;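 also: controls were vehicle for no effect and minimum signal wells for full effect; inactives centre near -20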
Arbovirus inh repeat: second read-out of Arbovirus inh, no call of its own (marks repeat the call); inhibition, %; measured here: 10K subset replicate screen; many hits read low in the repeat;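 first of two repeat runs on a subset; 0% = infected and 100% = uninfected wells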
An asterisk follows results filed as active; ? = inconclusive; . = no result given; & = joins results of further samples. Some of the compounds tested; rates above refer to the full screens.

SMILES	Mtb bLac sens	Mtb H37Rv	Arbovirus inh	RecA intein inh	YopH PTP inh	others
CN1CCN(S(=O)(=O)c2ccc(NC(=O)Cc3ccc([N+](=O)[O-])cc3)cc2)CC1	-19.6	.	.	0.9	.
CCN(c1ccccc1)S(=O)(=O)c1nnc(NC(=O)c2ccco2)s1	-1.9	.	.	-3.3	.
C/C(=N/NC(=O)Cc1cccn1C)c1ccccc1	2.2	-3.9%	-0.6	2.9	14.8
O=C(NCCS(=O)(=O)NCc1ccccc1)c1ccc2c(c1)OCO2	2.5	.	.	-0.6	.
O=C(c1cn(-c2ccccc2)nc1-c1ccccc1)N1CCN(c2ccccn2)CC1	21.8	21.1%	-13.4	6.5	.
C=CCOC(=O)C(C#N)c1nc2ccccc2nc1N1CCC(C(=O)OCC)CC1 (stereo unspecified)	-2.4	-13.4%	-0.9	-7.4	-17.6
COc1ccc(NC(=O)N2CCn3c2nc2ccccc23)cc1	-2.2	-7.0%	-0.6	-0.4	-24.8
CCCCNC(=S)Nc1ccc2[nH]c(=O)[nH]c2c1	-9.5	3.8%	7.8	-2.7	.
CCN(CC(=O)Nc1ccc(C(=O)OC)cc1)Cc1ccccc1	6.3	7.8%	2.0	1.4	.
Cn1c(=O)[nH]c(=O)c2c1nc(N1CCCC1)n2CC(O)COc1ccccc1 (stereo unspecified)	-0.1	-13.5%	-2.9	.	4.5	Arbovirus inh repeat=2.1
O=C(Cn1cnc2cc([N+](=O)[O-])ccc2c1=O)NCCc1ccc(F)cc1	-5.7	-8.8%	-3.7	-3.5	.
O=C(O)c1ccccc1SCc1cn2ccccc2n1	-0.3	-0.3%	7.4	-1.8	-20.7
CC1CN(C(=O)c2cc([N+](=O)[O-])cc([N+](=O)[O-])c2)CC(C)O1 (stereo unspecified)	0.0	-8.2%	3.8	0.0	.
CCCCCCn1nc(C(=O)N(CC(C)C)c2c(N)n(CCCC)c(=O)[nH]c2=O)c2ccccc2c1=O	?	.	.	1.6	.
COC(=O)c1ccc(NC(=O)CN(c2ccc(C)cc2)S(=O)(=O)c2c(C)n[nH]c2C)cc1	1.1	-13.0%	2.8	0.6	5.1
O=C1NC[C@H](c2ccccc2)N(CCc2cccc3ccccc23)C1=O	84.3	-2.0%	.	2.4	.
COc1ccccc1NC1=C(N2CCCCC2)C(=O)c2ccccc2C1=O	1.0	-3.8%	-19.3	79.3*	90.2*
CC(C)C[C@@H](CO)N1CCN(Cc2ccccc2)CCC1=O	3.0	.	.	6.3	.
Cc1nc2ccc(S(=O)(=O)NCC(=O)N(C)Cc3ccccc3)cc2s1	-4.3	4.2%	-2.7	5.3	.
CCCc1cc(=O)[nH]c2nnc(SCC(=O)Nc3ccc(NC(C)=O)cc3)n12	-2.5	.	.	0.9	.
COc1cc2nc(N(C)CCCNC(=O)C3CCCO3)nc(N)c2cc1OC (stereo unspecified)	3.8	-15.1%&-6.0%	0.6	-2.8	.
CCOC(=O)c1cc(S(=O)(=O)N(C)Cc2ccccc2)cn1C	0.8	.	.	0.6	.
COc1cc(C)ccc1OCc1cc(C(=O)N2CCCCCCC2)no1	-5.4	.	.	1.3	.
O=C(COC(=O)c1ccc(O)cc1)Nc1nccs1	-7.2	-7.8%	0.1	-3.7	.
Cc1nc2c3ccccc3nc(NNC(=O)CCC(=O)NC(C)C)n2n1	-2.0	3.1%	-1.1	-1.6	-16.4

Gathered by group, the compounds so far with two or more sulfur atoms
SMILES	Mtb bLac sens	Mtb H37Rv	Arbovirus inh	RecA intein inh	YopH PTP inh	others
CCN(c1ccccc1)S(=O)(=O)c1nnc(NC(=O)c2ccco2)s1	-1.9	.	.	-3.3	.
Cc1nc2ccc(S(=O)(=O)NCC(=O)N(C)Cc3ccccc3)cc2s1	-4.3	4.2%	-2.7	5.3	.

Back to the main list, repeating the 2 entries before the break.
SMILES	Mtb bLac sens	Mtb H37Rv	Arbovirus inh	RecA intein inh	YopH PTP inh	others
O=C(COC(=O)c1ccc(O)cc1)Nc1nccs1	-7.2	-7.8%	0.1	-3.7	.
Cc1nc2c3ccccc3nc(NNC(=O)CCC(=O)NC(C)C)n2n1	-2.0	3.1%	-1.1	-1.6	-16.4
Cc1c(NC(=O)C(C)OC(=O)COc2ccc(C#N)cc2)c(=O)n(-c2ccccc2)n1C (stereo unspecified)	-1.2	.	.	-4.8	.
CC1CCCCN1Cc1c[nH]c2ccccc12 (stereo unspecified)	-4.5	-5.0%	.	.	.
CCOc1ccccc1NC(=S)N1CCCc2ccccc21	-2.8	-0.7%	-2.8	-0.8	.
C=CCCCCCCCCc1nc(SCC(C)=O)n[nH]1	2.5	19.5%	.	4.0	.
COC(=O)C(=O)C/C(=N/Nc1ncnc2ccccc12)c1ccc(Cl)cc1	0.1	.	.	-1.2	.
Cc1sc(NC(=O)C2CCCCC2)c(C#N)c1-c1ccccc1	1.8	.	4.9	1.5	-10.7
CCN(CC)CCn1c2ccc(F)cc2c2nc(C)sc21	3.5	16.3%	-8.1	-2.0	-11.7
COc1cc(C(=O)Nc2nc3ccc4nc(C)sc4c3s2)cc(OC)c1OC	22.2	-1.0%	8.5	-0.5	-10.3
CC(C)CN(C(=O)COC(=O)CCCc1nc2ccccc2s1)c1c(N)n(Cc2ccccc2)c(=O)[nH]c1=O	7.5	.	.	1.2	.
Cc1ccc(C(=O)CNc2cccc([N+](=O)[O-])c2)cc1	-5.3	2.3%	7.6	-8.1	.
CCN1C(=O)CC(N2CCC(Nc3ccc(OC)cc3)CC2)C1=O (stereo unspecified)	-1.5	3.7%	-5.8	.	-26.5
COc1ccccc1C(=O)Nc1nnc(-c2ccc(Cl)cc2)o1	28.9	16.9µM*	-6.6	-6.7	.	Arbovirus inh repeat=-10.0
Cc1ccc(CNC(=O)Cn2cccc2)cc1	-0.5	.	.	-1.6	.
O=C(Nc1ccccc1)C1CCN(S(=O)(=O)c2ccc3c(c2)OCCO3)CC1	-2.2	.	.	-3.1	.
NC(=O)c1ccc(NC(=O)COc2ccc([N+](=O)[O-])cc2Cl)cc1	3.2	-0.2%	2.8	-3.1	.
O=C(COC(=O)c1ccccc1F)Nc1cc(S(=O)(=O)N2CCOCC2)ccc1N1CCCC1	7.9	3.6%	3.0	1.4	.
O=[N+]([O-])c1ccccc1S(=O)(=O)N1CCN(Cc2cc3c(cc2O)OCO3)CC1	-3.7	-5.2%	3.5	-3.5	.
Cc1ccccc1CSc1nnc(-c2ccccn2)n1C	-0.8	3.2%	.	-5.0	.
O=C(COC(=O)C1(c2ccc(F)cc2)CCCC1)N1CCN(C(=O)c2ccco2)CC1	-3.4	2.6%	1.1	2.2	-36.9
Cc1cccc(NC(=O)C2CC(=O)NC(Nc3nc4ccccc4s3)=N2)c1 (stereo unspecified)	3.6	-2.2%	-2.1	-10.7	-11.8
COCCNC(=O)CSc1nc2ccccc2c(=O)n1CC1CCCO1 (stereo unspecified)	-1.0	-2.9%	3.1	-2.4	-41.5
O=C(N/N=C/c1ccc([N+](=O)[O-])o1)c1cccc(S(=O)(=O)N2CCOCC2)c1	97.0	2.8%	3.1	7.8	.
O=c1[nH][nH]c(=O)c2cc(N3CCCC3)ccc12	6.8	-9.1%	8.1	1.4	-53.4
c1ccc(CCCNCC2COc3ccccc3O2)cc1 (stereo unspecified)	-5.8	12.2%	21.7	0.8	.
O=C(c1ccc(Br)cc1)C12CN3CN(CN(C3)C1)C2	-4.6	0.3%	-0.5	-2.2	.
Additional entries
SMILES	Mtb bLac sens	Mtb H37Rv	Arbovirus inh	RecA intein inh	YopH PTP inh	others
O=C(NCc1ccccc1)c1ccc(-c2ccc(F)cc2)o1	-7.8	5.4%	-9.8	.	-10.3
Cc1ccn2c(=O)c(C(=O)NCCN3CCOCC3)c(O)nc2c1	3.4	.	.	0.2	.
COc1ccc(NC(=O)c2ccc(Br)o2)c([N+](=O)[O-])c1	-4.7	8.8%	-3.1	-4.6	-51.9
O=C(NCc1ccco1)C(c1ccccc1F)N(Cc1cccnc1)C(=O)Cn1nnc2ccccc21 (stereo unspecified)	-3.8	-1.5%	-2.9	0.7	-1.9
CCOC(=O)/C(=C/C=C1\Sc2cc(C)c(C)cc2N1CC)C(C)=O	.	5.5%	-15.2	1.0	.
O=C(Cc1ccc(Cl)c(Cl)c1)Nc1ccc2[nH]c(=O)[nH]c2c1	3.3	-1.8%	-0.9	3.0	.
Cc1ccc(C2CC(=O)Nc3cc4c(cc32)OCCO4)s1 (stereo unspecified)	10.1	-1.9%	-4.6	-4.2	-103.9
CC(C)(C)c1ccc(/C=N/NC(=S)Nc2cccnc2)cc1	-2.7	7.0%	-5.0	-5.5	.
CC(C)(Oc1ccc(Cl)cc1)C(=O)NC1CC1	-2.0	.	.	-4.4	.
Cc1nc2ncc(Br)cc2[nH]1	-12.3	-3.8%	8.9	0.1	-27.3
O=C1/C(=C/c2ccc(Br)cc2)Oc2cc(O)ccc21	7.1	.	.	-13.2	.
COc1ccc(S(=O)(=O)NCC(=O)N(CC(=O)NCc2ccccc2)Cc2ccco2)cc1	-5.2	.	.	-2.7	.
Nc1ccc(-c2cc(-c3cccc(N)c3)nc(-c3ccccc3)n2)cc1	39.0	91.8%	0.6	-3.9	-28.8
CC1(C)Cc2c(sc3nc4n(c(=N)c23)CCCCC4)CO1	3.1	-5.5%	-7.0	-0.9	7.9
CCOC(=O)C(NCc1ccccn1)(NC(=O)c1cccnc1)C(F)(F)F (stereo unspecified)	0.3	-1.0%	-5.1	1.7	-30.4
S=C(NCCCN1CCOCC1)NC1CC1	2.9	0.0%	4.7	1.4	.
Cc1ccccc1C(=O)NNC(=O)/C=C\C(=O)O	1.5	-13.3%	.	0.5	.
CC1(C)CC(=O)c2cc(NC(=O)c3ccc(F)cc3)c(=O)oc2C1	-7.7	-2.2%	2.6	-3.6	.
Cc1cc2[nH]c(=O)c(=O)[nH]c2cc1S(=O)(=O)Nc1cccc(C)c1C	-3.9	.	.	-5.1	.
C/C=C(/C)C(=O)Nc1cccc(C2=NOC3(C2)C[C@H](C(N)=O)N(C(=O)c2ccccc2)C3)c1 (stereo partly specified)	-8.4	3.1%	.	0.9	.
COc1ccc(N2CCN(S(=O)(=O)c3ccc(OC)c(C(=O)N4CCCC4)c3)CC2)cc1	2.0	.	.	3.8	.
Cc1ccc(Cn2c(N)c(S(=O)(=O)c3cccs3)c3nc4ccccc4nc32)cc1	-13.2	-4.2%	-1.8	0.8	-21.7
COc1ccc(/C=N/NC(=O)CNc2n[nH]c(=O)[nH]c2=O)cc1OC	?	14.7%	13.8	-1.0	-30.4
Cn1ncn2c(=O)c3c(nc12)-c1ccccc1CC31CCCC1	-7.4	0.6%	.	0.4	.
Cc1ccc(C(=O)Nc2ccccc2C(=O)Nc2ccccn2)cc1Cl	2.6	.	.	0.8	.
Next section
SMILES	Mtb bLac sens	Mtb H37Rv	Arbovirus inh	RecA intein inh	YopH PTP inh	others
Cc1cc(Br)cc(Br)c1OCC(=O)NNC(=O)CCC(=O)NCc1ccccc1	-2.5	.	.	-2.3	.
Cc1ccc2nc(NC(=O)CN3C(=O)NC4(CCCCC4)C3=O)sc2c1	-4.3	.	.	-4.0	.
Cc1ccc2c3c1C1(C(=O)N3C(C)(C)CC2C)C(C#N)=C(N)Oc2cc(O)ccc21 (stereo unspecified)	0.3	-4.8%	0.0	3.3	15.8
O=C(CSc1n[nH]c(-c2ccccc2O)n1)N1CCCc2ccccc21	-1.3	-0.3%	-13.2	0.6	-58.2
Cc1ccc(CNC(=O)c2ccc(-n3cccc3)cc2)cc1	.	7.2%	13.5	-1.6	.
Cc1nnc(NC(=O)c2ccc3c(c2)C(=O)N(CCC(C)C)C3=O)s1	26.4	0.7%	6.5	-1.4	4.6
Cc1cc(C)cc(NC(=S)NCc2cccnc2)c1	-4.8	0.9%	8.5	-1.5	-25.2
COc1ccc(CC(NC(C)=O)C(=O)NC2CCN(C(=O)C3CCCCC3)CC2)cc1OC (stereo unspecified)	4.3	.	.	-0.3	.
CC1Cc2cc(-c3csc(NC(=O)Cc4ccccc4)n3)ccc2N1S(C)(=O)=O (stereo unspecified)	69.2	20.0%	-7.8	2.2	-18.3
CCNC(=O)CC1SC(=Nc2ccc(Cl)cc2)N(CC)C1=O (stereo unspecified)	7.2	7.7%	17.1	-0.6	-3.2
Cc1ccc(C(=O)Nc2cc(Cl)ccc2OC(=O)c2ccc(C)cc2)cc1	58.7	.	2.9	4.2	-36.5
COc1ccc2nc3oc(C(=O)N4CCN(c5ccccc5F)CC4)cc3cc2c1	-4.1	-7.7%	1.6	1.5	-49.4
CCCCOc1ncnc2c1[nH]c1ccc(F)cc12	11.4	9.5%	12.8	.	4.8
CCn1cc(C(=O)N[C@H](C(=O)O)C(C)C)c(=O)c2cc3c(cc21)OCO3	-1.2	.	.	-0.1	.
Cc1c(C(=O)O)c(=S)sn1CCOc1ccccc1	.	0.0%	-2.7	-4.7	-49.3
